NPYLR7 ag – mosquito NPYLR7 agonism; HEK293T NPYLR7/Galpha15, GCaMP6s calcium fluorescence; activation, % at 10 µM; 0.15% of 270,000 active; AID 1259423; in the data active = activation above about 40%;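 also: 0% = vehicle and 100% = reference agonist at the receptor; some compounds past the cut are filed as inactive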
NPYLR7 ag max-min – further read-out of NPYLR7 ag, marked with its call; activation, %; measured here: Max-Min RFU normalised activation; some inactives read as strong as hits;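 span of the calcium signal over five minutes; 0% = vehicle and 100% = native peptide agonist; compound fluorescence can raise it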
The depositor's hits bear a star. Only part of the results is shown; rates above refer to the full screens.

Values run as follows: NPYLR7 ag	NPYLR7 ag max-min
O=C(NCC1(c2ccccc2)CC1)c1cc(Cl)ccc1O
    4	-1
COC(=O)c1csc(CN(C(=O)Nc2ccc(F)cc2F)C2CCCCC2)n1
    11	9
CCOC(=O)C1(Cc2ccccc2F)CCCN(C(=O)CCc2scnc2C)C1 (stereo not drawn)
    0	-1
CC(C)C[C@@H](C(=O)Nc1ccc(N(C)C)cc1)N1CC[C@@]2(CCCN2)C1=O
    6	-2
Cc1nn(CC(=O)N2CCC(Cc3ccccc3)CC2)c(=O)c2c1cnn2-c1ccccc1
    4	-1
O=C(Nc1cccc(Cl)c1)C1CC(=O)N(Cc2ccc3c(c2)OCO3)C(=Nc2ccccc2)S1 (stereo not drawn)
    -2	-4
COc1cc(C(C)=O)ccc1OCC(=O)Nc1c(C)nc2cc(C)ccn2c1=O
    1	-1
CCc1ccc(S(=O)(=O)Nc2ccc(-c3ccc(N4CCCCC4)nn3)cc2)s1
    -1	-3
CC1(C)CNC(=O)c2nc(-c3cc4ccccc4[nH]3)[nH]c2C1
    6	4
Cc1cc(C)n(CCC(=O)N2CC[C@@H](c3sccc3C)[C@H](O)C2)c(=O)n1
    16	2

A draw from above in order of heavy-atom count, descending.
Values run as follows: NPYLR7 ag	NPYLR7 ag max-min
CCOC(=O)C1(Cc2ccccc2F)CCCN(C(=O)CCc2scnc2C)C1 (stereo not drawn)
    0	-1
COC(=O)c1csc(CN(C(=O)Nc2ccc(F)cc2F)C2CCCCC2)n1
    11	9
CC(C)C[C@@H](C(=O)Nc1ccc(N(C)C)cc1)N1CC[C@@]2(CCCN2)C1=O
    6	-2
Cc1cc(C)n(CCC(=O)N2CC[C@@H](c3sccc3C)[C@H](O)C2)c(=O)n1
    16	2
CC1(C)CNC(=O)c2nc(-c3cc4ccccc4[nH]3)[nH]c2C1
    6	4

Back to the main list, repeating the 2 entries before the break.
Values run as follows: NPYLR7 ag	NPYLR7 ag max-min
CC1(C)CNC(=O)c2nc(-c3cc4ccccc4[nH]3)[nH]c2C1
    6	4
Cc1cc(C)n(CCC(=O)N2CC[C@@H](c3sccc3C)[C@H](O)C2)c(=O)n1
    16	2
Cc1cc(C)nc(-n2nc(C)c3c2CC(c2ccc(F)cc2)CC3=O)n1 (stereo not drawn)
    4	4
CN(CCCOc1ccc(F)cc1)Cc1c(Cl)nc2sccn12
    -3	-7
O=c1c2c(-c3ccc(Cl)cc3)n3ncnc3nc2ccn1-c1ccccn1
    -2	-7
O=C(C=Cc1ccsc1)N1CCN(S(=O)(=O)c2c(Cl)cccc2Cl)CC1
    3	-3
CC(C)c1nnc(NC(=O)CSc2nc3ccccc3[nH]2)s1
    -5	-9
CCOc1cccc(C(=O)N(CC2CCCO2)c2ccncc2)c1 (stereo not drawn)
    1	2
N#Cc1c(NC(=O)CSc2nnnn2C2CCCCC2)sc2c1CCC2
    1	0
O=C1CCCN1CC(=O)N1CCOC(CCCc2ccccc2)C1 (stereo not drawn)
    -1	-2
CN1CCN(c2ncc(CNC3CCc4cc(F)ccc43)cn2)CC1 (stereo not drawn)
    -4	-5
Cc1ccc(Cn2ncc3c(N4CCN(C)CC4)ncnc32)cc1
    3	-1
CCOC(=O)c1[nH]c(C)c(C(=O)C(C)N(C(=O)c2cccc(Br)c2)C(C)C)c1C (stereo not drawn)
    -12	-8
CCOC(=O)C1CCCN(C(=O)c2cc(-c3cccc(OC)c3)nn2-c2cc(C)ccc2C)C1 (stereo not drawn)
    21	15
CC(NC(=O)/C=C/c1ccc(C#N)cc1)c1cccs1 (stereo not drawn)
    11	10
CCNc1ccc(C#N)cc1NS(=O)(=O)c1ccc2c(c1)CCC(=O)N2
    -2	-4
COc1ccccc1NC(=O)N1CCCN(c2nc(Cc3ccc(F)cc3)ns2)CC1
    -7	-5
CN1C(=O)N(CCCc2ccncc2)C(=O)C12CCN(Cc1cc3ccccc3o1)CC2
    19	5
COc1cccc(CCNC(=O)C2CC23c2ccccc2-c2ccccc23)c1 (stereo not drawn)
    13	7
CCCNC(=O)CSc1nnc(C)c2cnn(-c3ccc(C)c(C)c3)c12
    -11	-15
COc1ccc(-c2nccn2Cc2ccon2)c(OC)c1
    18	5
CC(C)CN(CC(=O)Nc1cc(-c2ccccc2)nn1-c1ccccc1Cl)C(=O)C1CCC1
    13	0

An excerpt of these results, field by field.
COc1ccccc1NC(=O)N1CCCN(c2nc(Cc3ccc(F)cc3)ns2)CC1
  NPYLR7 ag: -7; NPYLR7 ag max-min: -5
CN1C(=O)N(CCCc2ccncc2)C(=O)C12CCN(Cc1cc3ccccc3o1)CC2
  NPYLR7 ag: 19; NPYLR7 ag max-min: 5
COc1cccc(CCNC(=O)C2CC23c2ccccc2-c2ccccc23)c1 (stereo not drawn)
  NPYLR7 ag: 13; NPYLR7 ag max-min: 7

The list continues:
Values run as follows: NPYLR7 ag	NPYLR7 ag max-min
O=C(c1ccc(Cn2ccnc2)o1)N1CCc2onc(-c3ccccc3)c2C1
    4	1
c1ccc(Oc2cccc(CN3CCCn4cccc4C3c3ccoc3)c2)cc1 (stereo not drawn)
    12	15
CC(=O)N1CCN(C(=O)c2cnc3c(C)csc3c2)CC1
    -1	-3
Cc1cnc(N2C[C@H]3OC(=O)N(CCCN4CCOCC4)[C@H]3C2)nc1N
    -1	-5
COCc1nc(C)nc(N2CCN(C(=O)C3CCC3)CC2)c1Cc1ccccc1F
    -1	8
COc1ccc(-c2nc3ccc(C)cn3c2NC(=O)C2CCCC2)cc1
    -5	-4
CC=CCn1c(SCCc2ccccc2)nc2c1c(=O)[nH]c(=O)n2C
    4	-2
Fc1cccc(N=c2oc3ccccc3cc2-c2nc3ccccc3[nH]2)c1
    -6	-12
CCC(C(=O)Nc1cc(-c2ccco2)nn1-c1ccc(C(F)(F)F)cc1)c1ccccc1 (stereo not drawn)
    9	-4
Cc1cc(C(=O)N2CCC2(C)C(=O)NC2CCCCCC2)nn1C (stereo not drawn)
    18	17
CC(C)CCC(=O)Nc1ccc(C(N)=O)c(Cl)c1
    -1	-1
Cc1ncsc1CCC(=O)N1CCCC1c1nc2c(C)cccc2[nH]1 (stereo not drawn)
    8	6
CC(Cn1cncn1)NC(=O)C1CCN(C)C(=O)C1 (stereo not drawn)
    9	7
CC(=O)C(C(C)=O)=c1cc(Nc2ccc(C)cc2)c2c(O)c3ccccc3c3onc1c23
    48	32
CCOc1ncccc1C(=O)OCc1nc2sc3c(c2c(=O)[nH]1)CCC(C)C3 (stereo not drawn)
    2	-5
O=C1CN(CC2(O)CCCCC2)CCN1C1CC1
    15	8
O=C(O)c1ccc(=O)n(Cc2ccccc2F)c1
    3	4
CC(Cn1cnc2ccccc21)C(=O)NN=Cc1ccccn1 (stereo not drawn)
    14	3
O=c1c2cc3c(=O)n(-c4ncn[nH]4)ccc3nc2ccn1-c1ccccn1
    -11	-15
CCN1CCOC(C(=O)Nc2ccc(-n3nc(C)cc3C)c(F)c2)C1 (stereo not drawn)
    4	4
Cc1nc(C)n(CC(C)C(=O)Nc2cccnc2)n1 (stereo not drawn)
    -2	8
OC(CN(CCc1nc(-c2ccc(Br)cc2)no1)Cc1ccco1)c1ccccc1 (stereo not drawn)
    6	10
CCOC(=O)N1CCN(C(c2ccc(SC)cc2)c2c(O)cc(C)n(CC)c2=O)CC1 (stereo not drawn)
    11	2
CC1=Nc2ccccc2N2C(=O)C(c3ccccc3)=S=C12
    3	2
COc1ccccc1/C=C/C1=NC(=C\c2cccc(Cl)c2)/C(=O)O1
    -3	-6
CC(CC1OCC(CN2CCCCC2)O1)CC(C)(C)C (stereo not drawn)
    -5	-10
CC(C)(C)CC(=O)N1CCN(c2ncnc3c2nnn3Cc2ccccc2)CC1
    -10	-19
O=C(NCCOC1=NS(=O)(=O)c2ccccc21)C(=O)Nc1ccccc1
    5	5
Cc1cc(C(=O)CSc2nnc(-c3cccs3)o2)c(C)n1C1CCS(=O)(=O)C1 (stereo not drawn)
    2	4
C=CCN(C(=O)C1C[C@H]1c1ccccc1)C(C)C(=O)c1c(C)c(C(=O)OCC)n(C)c1C (stereo partly drawn)
    -3	6

Look-ups from the list.
C=CCN(C(=O)C1C[C@H]1c1ccccc1)C(C)C(=O)c1c(C)c(C(=O)OCC)n(C)c1C (stereo partly drawn) @ NPYLR7 ag max-min: 6
Cc1nc(C)n(CC(C)C(=O)Nc2cccnc2)n1 (stereo not drawn) @ NPYLR7 ag max-min: 8
O=C(NCCOC1=NS(=O)(=O)c2ccccc21)C(=O)Nc1ccccc1 @ NPYLR7 ag: 5
COc1ccccc1/C=C/C1=NC(=C\c2cccc(Cl)c2)/C(=O)O1 @ NPYLR7 ag max-min: -6
CC(C)(C)CC(=O)N1CCN(c2ncnc3c2nnn3Cc2ccccc2)CC1 @ NPYLR7 ag: -10

The list continues:
Values run as follows: NPYLR7 ag	NPYLR7 ag max-min
CCCn1ncc(CN2CCN(Cc3cccc(OC)c3)C(CCO)C2)c1C (stereo not drawn)
    3	1
O=C(N=Nc1cc(NS(=O)(=O)c2ccccc2)c2ccccc2c1O)c1cccc([N+](=O)[O-])c1
    -5	-9
CCc1nccc(CN2CCCC(c3nn(C)c(=O)n3CC)C2)n1 (stereo not drawn)
    7	5
COc1cc(/C=C2/C(=O)N(c3ccc(Br)cc3)N=C2C)cc(I)c1O
    4	8
O=C(CCc1nnc(COc2ccccc2)o1)NCc1ccccc1
    1	1
